# Screening results as filed in PubChem BioAssay.
# NS1 function inh – inhibitors of influenza NS1 protein function. S. cerevisiae slowed by influenza A NS1, growth recovery by OD600. Potency, µM (top dose mostly 46.1 µM), for the others: top-dose activity, positive = more growth. hit rate 0.4% among 270,000. AID 2326; note: actives are rising curves; nearly all actives have a fitted effect of over 50% in size
#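 Compounds were scored for reversing the slow growth caused by influenza A NS1 in S. cerevisiae, measured by optical density at 600 nm. Assay medium contained 2% galactose at pH 6.0; NS1-free yeast of the same strain were the positive control.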
# Marburg entry inh – inhibitors of Marburg virus binding or cell entry; Potency, µM (top dose mostly 37.8 µM), for the others: at the top dose activity change, negative = inhibition, most hits filed as inhibitors; Marburg virus pseudotyped entry inhibition, cell reporter; control for the full effect not named in the record; about a third of the inactives were read at about 46 µM; hit rate 1.8% among 300,000; AID 540276; active = well fitted inhibition curve with a large enough effect; inconclusive = small, poorly fitted or top-dose-only effect, or effect the other way; inactive = flat fitted curve, though single readings scatter; tested in HEK293 cells; about a fifth of its hits are not listed in these tables; note: % is set by controls: 0 for no effect and ±100 for the full control effect; luciferase read-out
# SARS PLP yeast – inhibitors of SARS-CoV papain-like protease in yeast | Potency, µM (highest dose often 32.9 µM), for the others: top-dose activity, positive = growth rescue | S. cerevisiae expressing SARS-CoV PLpro, growth rescue; control for the full effect not named in the record | hit rate 0.19% among 330,000; note: 0% is about no effect; nearly all actives have a fitted effect of over 55% in size; growth read by luminescence after 48 h
# Cruzain inh noDet – cruzain (T. cruzi) inhibition without detergent. purified cruzain, Z-FR-AMC fluorescence, no detergent. hit rate 2.3% among 200,000. P25779. Potency, µM, inactives show max response, negative = inhibition, hits mostly inhibitors; active = well fitted curve in the direction sought with a large enough effect; inconclusive = small, poorly fitted or top-dose-only effect, or another doubt; inactive = no such curve, though single readings can be large; an effect the other way counts as inactive or inconclusive;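 note: plate controls were enzyme without inhibitor for no effect and buffer without enzyme for full effect; nearly all actives have a fitted effect of over 40% in size; top concentration of the series not given in the record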
# Target sequence (P25779 123-467 limits assumed): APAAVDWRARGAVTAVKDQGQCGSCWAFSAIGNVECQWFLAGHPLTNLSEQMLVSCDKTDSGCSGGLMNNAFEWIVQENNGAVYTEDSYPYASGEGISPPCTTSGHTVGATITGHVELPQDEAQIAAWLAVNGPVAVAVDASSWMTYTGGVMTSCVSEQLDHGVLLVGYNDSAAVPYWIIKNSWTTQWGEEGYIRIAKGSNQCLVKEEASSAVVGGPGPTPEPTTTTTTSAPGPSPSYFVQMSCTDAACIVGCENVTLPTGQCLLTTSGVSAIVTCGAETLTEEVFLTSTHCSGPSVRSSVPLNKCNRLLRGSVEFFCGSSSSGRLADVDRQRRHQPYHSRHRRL
#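 Purified cruzain at 1.5 nM, pre-incubated 15 min with compound at room temperature in 100 mM sodium acetate pH 5.5, 5 mM DTT, 0.00005% Triton X-100. Reaction started with 2 uM Z-FR-AMC; AMC fluorescence increase over 60 s gives rate.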
# RE007 growth inh – less growth of the S. pombe RE007 Vpr strain; S. pombe RE007 Vpr strain, BacTiter-Glo ATP luminescence, 24 h; control for the full effect not named in the record; Potency, µM (doses to about 92.2 µM), inactives show top-dose activity change, negative = less growth; hit rate 0.21% among 360,000; active = well fitted falling curve with a large enough effect; inconclusive = small, poorly fitted or top-dose-only effect; inactive = no such curve, though single readings can be large or run the other way;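 note: % is set by controls: 0 for no effect and ±100 for the full control effect; nearly all actives have a fitted effect of over 50% in size; the assay follows cell death caused by Vpr and the record does not say whether a fall means rescue or toxicity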
#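 Fission yeast RE007 carrying one integrated HIV-1 vpr copy, seeded at OD 0.01 in PMG+AL medium with 23 nL pinned compound. Grown 24 h at 30 degrees; viability read by BacTiter-Glo luminescence after 5 min.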
# Lassa entry inh – inhibitors of Lassa virus binding or cell entry; Lassa virus pseudotype entry inhibition, cell reporter; control for the full effect not named in the record; Potency, µM (series often up to 37.9 µM), inactives show at the highest dose activity change, negative = inhibition, most hits filed as inhibitors; hit rate 1.2% among 300,000; AID 540256; active means well fitted inhibition curve with a large enough effect; inconclusive means small, poorly fitted or top-dose-only effect, or effect the other way; inactive means flat fitted curve, though single readings scatter; tested in HEK293 cells; note: % is set by controls: 0 for no effect and ±100 for the full control effect; nearly all actives have a fitted effect of over 50% in size; luciferase read-out
# 2A StopGo – lowers the luciferase signal of an FMDV 2A StopGo reporter. hit rate 1.2% among 410,000. human cells with a luciferase reporter of 2A StopGo recoding; control for the full effect not named in the record. Potency, µM (titrated, usually from 57.9 µM), without a hit: at the highest dose signal change, negative = less light; active = well fitted falling curve with a large enough effect; inconclusive = small, poorly fitted or top-dose-only effect; inactive = no such curve, though single readings can be large or run the other way; tested in HEK293T cells; note: % is set by controls: 0 for no effect and ±100 for the full control effect; nearly all actives have a fitted effect of over 45% in size; luciferase light after 4 h
# Cruzain Triton – blocks cruzain activity in presence of Triton detergent; purified cruzain, Z-FR-AMC fluorescence, 0.01% Triton; Potency, µM, inactives show max response, negative = inhibition, usual class: inhibitors; hit rate 0.43% among 200,000; AID 1478; active = well fitted curve in the direction sought with a large enough effect; inconclusive = small, poorly fitted or top-dose-only effect, or another doubt; inactive = no such curve, though single readings can be large; an effect the other way counts as inactive or inconclusive;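 note: plate controls were neutral wells for no effect and buffer without enzyme for full effect; nearly all actives have a fitted effect of over 40% in size; top concentration of the series not given in the record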
#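 In this qHTS format, compounds are incubated with 1.5 nM cruzain for 15 min at room temperature before 2 uM Z-FR-AMC is added. Release of AMC is followed at 360/450 nm, and progress is taken as the 60 s fluorescence difference.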
# * hit, by the source's call; ? = inconclusive; / = no result given; & = joins results of further samples; [ ] = dose if it differs, or a comment. Unless noted, calls come from the whole dose curve; as a rule, active means well fitted rising curve with a large enough effect; inconclusive means small, poorly fitted or top-dose-only effect; inactive means no such curve, though single readings can be large or run the other way. Potency is the fitted concentration of half-maximal effect. Rows are unselected; any-hit rate near 4.7%.
SMILES,NS1 function inh,Marburg entry inh,SARS PLP yeast,Cruzain inh noDet,RE007 growth inh,Lassa entry inh,2A StopGo,Cruzain Triton
O=C(OCC(=O)N1CCN(c2ccccc2)CC1)c1ccccc1OC(F)F,/,0%,6%,/,-12%,14%,0%,/
O=C(Cn1ncc2c([nH]c3ccccc32)c1=O)NCC1CCN(Cc2ccc(F)cc2)CC1,8%,8%&8%[46.1 µM],2%,/,-2%,?,24%&3%,/
COC(=O)C1CCN(C(=O)COC(=O)C2CCN(S(=O)(=O)c3ccc(C)c(C)c3)CC2)CC1,/,7%,-2%,/,-8%,?,-10%,/
O=C(CSc1nc2ccccc2o1)NC1CCS(=O)(=O)C1 (stereo not given),/,0%,1%,/,-4%,6%,-16%,/
Cc1nc2c(C(=O)NCc3ccccc3Cl)cnn2c(C)c1Cc1c(F)cccc1Cl,/,/,/,-13%,/,?,7%,-0.3%
COc1cc(NC(=O)CSc2nc(-c3cccs3)cc(C(F)(F)F)n2)cc(OC)c1OC,/,?,/,-14%,/,-21%[46.1 µM],?,-2.7%
OC(Cc1ccnc2ccccc12)C(Cl)(Cl)Cl (stereo not given),/,?,/,/,-8%,?,?,/
CC(Sc1nc(-c2ccccc2)cc(C(F)(F)F)n1)C(=O)Nc1sc2c(c1C#N)CCC2 (stereo not given),16%,-39%,1%,?,5%,0%,-29%,-0.4%
CCN(CC)S(=O)(=O)c1cccc(-c2nnc(-c3ccc(C)cc3)o2)c1,3%,-1%,0%,4%,10%,1%,16%,1.6%
CC(=NN=C(C)c1ccc(O)cc1)c1ccc(O)cc1,/,-1%[46.1 µM],/,/,-3%,-24%[46.1 µM],7%,/
Cc1ccc(C(C)C)c(OCCCn2c(=O)oc3ccccc32)c1,/,-24%[46.1 µM],/,-17%,/,25%[46.1 µM],-21%,-6.7%
Cc1ccc(-c2noc(CCC(=O)N3CCCc4ccccc43)n2)cc1,-57%,-16%,-30%,-3%,17%,-12%,?,-12%
O=C(NC(=S)NC1CCCCC1)c1ccc(Cl)cc1,19%,?,?,/,?,?,6%,/
O=C1CN(S(=O)(=O)c2ccccc2)CC(=O)N1CCc1ccccc1,11%,-3%,0%,4%,-3%,7%,-14%,1.6%
COC(=O)Cn1cc(/C=C2\C(=O)NC(=O)N(c3ccc(OC)cc3)C2=O)c2ccccc21,1%,12%[46.1 µM],1%,/,77%,?,-27%,/
COc1ccccc1CNC(=O)c1ccc(-c2ccccc2Cl)o1,-59%,5%,-30%,-5%,-4%,?,-1%,-8.8%
Cc1ccc2nc(Cl)c3cc(C(=O)N4CCCCC4C)sc3c2c1 (stereo not given),/,2%[46.1 µM],/,-10%,/,25%[46.1 µM],8%,0.1%
O=c1cc(O)c2c(=O)n(Cc3ccccc3)c3ccccc3c2o1,/,4%[46.1 µM],-4%,/,-21%,?,0%,/
CCOc1ccc(NC(=O)C2C3C=CC4(CN(C(C(=O)OC)C(C)C)C(=O)C24)O3)cc1 (stereo not given),-7%,-21%&-21%,5%,-1%,-2%,11%,-12%,-0.8%
Cc1ccc(Nc2nc(N)nc(CSc3nc4ccccc4s3)n2)cc1,12%,?,-23%,?,6%,?,0%,-11%&-1.8%
CCOC(=O)c1ccc(NC(=O)CSc2ccc(-c3sc(C)nc3C)nn2)cc1,/,/,/,-8%,/,?,-18%,-1.6%
O=C(CCc1c[nH]c2ccccc12)OCc1ccc(Br)cc1,-16%,24%,-6%,/,-17%,?,-13%,/
Cc1cc(C)c(OCC(=O)N(Cc2ccc(N(C)C)cc2)Cc2ccco2)c(C)c1,/,1%[46.1 µM],/,?,/,-18%[46.1 µM],-22%,-11%
O=C(NC1(O)C(=O)c2ccccc2C1=O)c1ccccc1,5%,-30%&-30%,3%,4%,9%,?,-8%,-5.1%
O=C(CN(CC1CCCO1)C(=O)CCC(=O)Nc1nccs1)NCC1CCCO1 (stereo not given),3%,?,-2%,-8%,-25%,9%,1%,-0.2%
Cc1ccc(Sc2ncccc2C(N)=O)cc1,/,-8%[46.1 µM],/,/,21%,13%,-1%,/
COc1cc(OC)cc(C(=O)NCCn2ccc3ccccc32)c1,-63%,/,-10%,-2%,-4%,/,-5%,-0.7%
NC(=O)C1CCN(CC(O)COc2ccc(-c3ccccc3)cc2)CC1 (stereo not given),12%,?,-1%,/,16%,-18%[46.1 µM],-6%,/
CCc1noc(C)c1C(=O)Oc1ccc(N(C)S(=O)(=O)c2ccc(C)c(C)c2)cc1,/,-21%,5%,/,0%,?,?,/
COc1cc2c(-c3ccc(O)cc3)nc3c(c(C)nn3-c3ccccc3)c2cc1OC,1%,-15%,8%,13%,-15%,?,0%,-7.4%
O=C(Nc1ccc(N2CCN(c3ccc(F)cc3)CC2)c(C(=O)O)c1)c1cccs1,/,/,/,2%,/,24%[46.1 µM],-1%,3.0%
Cc1cc(C(=O)CSc2nnc(-c3cccs3)n2Cc2ccccc2)c(C)n1C,-13%,?,4%,24%,6%,4%,-6%,-5.0%
CC(NC(=O)C1CCN(C(=O)N2CCOc3ccc(Cl)cc32)CC1)c1ccccc1 (stereo not given),/,/,/,6%,/,?,13%,-5.7%
OCC(CO)c1cnnc2ccccc12,/,0%,/,/,12%,17%,3%,/
CCN(CC)S(=O)(=O)c1ccc(/C=C/C(=O)Nc2ccc(Br)cc2F)cc1,6%,6.5µM*,9%,-1%,3%,1.6µM*,5µM*,-7.4%
O=C1CC(C(=O)O)S/C(=N\NC(=O)c2ccc(F)cc2)N1 (stereo not given),1%,3%,-16%,-8%,45%,1%,-7%,2.8%
CS(=O)(=O)c1ccc(-c2nn[nH]n2)cc1,-7%,23%,-3%,0%,-4%,10%,-18%,3.6%
Cc1nccn1CCOc1ccc(Cl)cc1,-12%,14%,1%,/,5%,?,-17%,/
CCOC(=O)/C=C1/SCC(=O)N1CC(=O)Nc1cccc(F)c1,/,2%,3%,/,-9%,-8%,?,/
O=[N+]([O-])c1ccc(CN2CCN(c3ccc(Cl)cc3)CC2)o1,0%,3%[46.1 µM],-15%,/,-13%,29%[46.1 µM],-22%,/
Cc1ccc(C(=O)NC(=S)Nc2ccccc2N2CCCC2)cc1[N+](=O)[O-],17%,1%,?,-21%,10%,2%,-6%,-8.6%
Cc1ccc(CSC2=Nc3ccccc3C3=NC(CC(=O)NCc4ccc5c(c4)OCO5)C(=O)N23)cc1 (stereo not given),/,/,/,-15%,/,-5%[46.1 µM],27%,-2.1%
Oc1ccccc1C=NNc1nc2ccccc2s1,/,?,/,/,-19%,?,13%,/
CC(C)Cc1nnc(NC(=O)CCS(=O)(=O)c2ccc(Cl)cc2)s1,0%,-21%,?,/,0%,-1%,-12%,/
CCOC(=O)c1nnn2c1nc(N1CCN(C)CC1)c1ccccc12,1%,5%,1%,/,-9%,5%,-9%,/
Cc1cc(C)cc(C(=O)N(C)C2CCCN(Cc3ccccc3F)C2)c1 (stereo not given),4%,/,1%,/,-3%,/,0%,/
COCc1cc(CN2CCN(CCCc3ccccc3)C(CCO)C2)ccc1OC (stereo not given),14%,-3%[46.1 µM],8%,/,7%,-2%[46.1 µM],-9%,/
CCC(Cc1ccccc1)NC(=O)CCNS(=O)(=O)c1cc(Br)cnc1N (stereo not given),-2%,2%[46.1 µM],26%,/,-4%,-22%[46.1 µM],-1%,/
CS(=O)CSc1nc2c(cc1C#N)CCCC2 (stereo not given),5%,9%,-2%,-7%,14%,2%,7%,1.2%
COC(CNC(=O)CN1CCN(Cc2ccc(F)cc2Cl)C1=O)OC,-1%,-10%[46.1 µM],-1%,/,-18%,-5%[46.1 µM],5%,/

# (listing goes on)
SMILES,NS1 function inh,Marburg entry inh,SARS PLP yeast,Cruzain inh noDet,RE007 growth inh,Lassa entry inh,2A StopGo,Cruzain Triton
Cc1ccc(C(c2sc3ncnn3c2O)N2CCCCC2)cc1 (stereo not given),?,/,-4%,17%,-6%,/,26%,-2.7%
Cc1ccc2c(c1)sc1nc(=O)ccn12,39%,9%[46.1 µM],1%,/,15%,-14%[46.1 µM],16%,/
O=c1[nH]c(=S)n(C2CC2)c(O)c1/C=N/N1CCOCC1,10%,?,8%,-14%,-7%,9%,-13%,-9.7%
COc1ccc(NC(=O)NC2(C(=O)N3CCOCC3)CCCCC2)cc1,24%,2%[46.1 µM],1%,/,-10%,12%,-2%,/
COc1cc(/C=N/NC(=O)Nc2ccccc2)ccc1OC(C)=O,27%,?,25%,3%,-5%,-17%,30%[activator],-2.5%
O=C(c1ccc2c(c1)N(Cc1ccccc1)C(=O)c1ccccc1S2(=O)=O)N1CCc2ccccc21,/,?,/,?,/,-22%[46.1 µM],19%,-0.8%
Cc1cc(F)ccc1-n1nnc(C(N)=O)c1C,/,7%[46.1 µM],/,10%,/,1%[46.1 µM],0%,-2.3%
Fc1ccccc1/C=N/n1c(COc2ccccc2)n[nH]c1=S,0%,13%,-2%,/,4%,?,-2%,/
S=C(NC1CCCCC1)c1ccc2c(c1)OCO2,0%,?,-9%,0%,-6%,4%,48%[activator],0.0%
COc1cccc(NC(=O)c2csc3c2CCCC3)c1,-35%,?,3%,/,?,-8%,44%[activator],/
Cn1c(-c2ccc(=O)[nH]c2)nc2ccccc21,9%,-1%[46.1 µM],0%,/,6%,8%,15%,/
CC(C)Oc1ccc(CNC(=O)Cn2c(=O)c3cccn3c3cccnc32)cc1,-1%,-1%[46.1 µM],-4%,/,0%,-38%[46.1 µM],13%,/
COc1cc(O)ccc1-c1nc2cc(C)ccn2c1Nc1ccccc1C,/,?,/,-7%,/,?,?,-11%
CCN1CCN(c2ncc(C(=O)N3CCN(c4ccccc4OC)CC3)c3ccccc23)CC1,-10%,-20%,/,/,-24%,-2%,-4%,/
CC(Sc1nnnn1-c1ccc(Cl)cc1)C(=O)NCC(=O)Nc1ccc(F)c(F)c1F (stereo not given),15%,-19%,-4%,12%,-7%,-24%,0%,-13%
COC(=O)C1=C(C)N(Cc2ccccc2)C(=O)N[C@H]1c1ccc(Br)cc1,1%,/,-3%,/,5%,/,0%,/
O=C(Nc1cccnc1Cl)c1cc2ccccc2o1,-6%,/,0%,/,-15%,/,46%[activator],/
CCCCc1ccc(/C(C)=N/NC(=O)C2CCCC2)cc1,10%,3%[46.1 µM],-4%,/,-3%,20%[46.1 µM],24%,/
